Calb FLC = affects C. albicans growth with fluconazole. hit rate 0.57% among 300,000. AID 1979. C. albicans CaCi-2 (fluconazole-resistant clinical isolate) + fluconazole, Alamar Blue growth, 48 h. growth inhibition, % (concentration not given with the values);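 active = most replicates above 75%; inconclusive = exactly half above 75%; inactive = most below 75%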;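 note: all wells also contain fluconazole at 8 µg/ml as a sub-toxic cotreatment; 0% = median of DMSO wells and 100% = median of geldanamycin control wells; wells of about 8 µL received 7.5 nL stock; the first replicate is given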
UCH37 inh = human UCH37 deubiquitinating enzyme inhibition; purified proteasome/UCH37, Ub-AMC cleavage fluorescence; Q9Y5K5; AID 588478; inhibition, % (concentration not given with the values); hit rate 0.33% among 330,000;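 active = mean of two replicates above 20%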;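 note: 0% = compound-free wells with enzyme and 100% = wells lacking proteasome; stock transfer was 100 nL into about 20 µL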
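Reagent: Ub-AMC substrate; assay system: Proteasome-associated human UCH37 deubiquitinase; controls: no-proteasome and no-compound wells; read-out: % inhibition of Ub-AMC cleavage fluorescence; timing: 30 min preincubation with enzyme, 25 min cleavage at room temperature; signal: AMC fluorescence from Ub-AMC cleavage, excitation 355 nm, emission 460 nm; buffer or medium: Tris-HCl pH 7.4 plus ovalbumin, ATP-MgCl2, DTT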
LANA-H2B inh = blocks KSHV LANA binding to histone H2A/H2B; inhibition, % (no concentration beside the values); Q9QR71; hit rate 0.6% among 320,000; cell-free LANA-H2A/H2B peptide, fluorescence polarization; in the data active = inhibition mostly above about 10%, no sharp cut-off; inactive = mostly below about 6.7%;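 note: stock transfer was 7.5 nL into about 10 µL; 0% = median of vehicle wells and 100% = median of positive control wells; one replicate is shown; the record names a cut of 25% in any replicate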
Target sequence (Q9QR71 whole entry, looked up): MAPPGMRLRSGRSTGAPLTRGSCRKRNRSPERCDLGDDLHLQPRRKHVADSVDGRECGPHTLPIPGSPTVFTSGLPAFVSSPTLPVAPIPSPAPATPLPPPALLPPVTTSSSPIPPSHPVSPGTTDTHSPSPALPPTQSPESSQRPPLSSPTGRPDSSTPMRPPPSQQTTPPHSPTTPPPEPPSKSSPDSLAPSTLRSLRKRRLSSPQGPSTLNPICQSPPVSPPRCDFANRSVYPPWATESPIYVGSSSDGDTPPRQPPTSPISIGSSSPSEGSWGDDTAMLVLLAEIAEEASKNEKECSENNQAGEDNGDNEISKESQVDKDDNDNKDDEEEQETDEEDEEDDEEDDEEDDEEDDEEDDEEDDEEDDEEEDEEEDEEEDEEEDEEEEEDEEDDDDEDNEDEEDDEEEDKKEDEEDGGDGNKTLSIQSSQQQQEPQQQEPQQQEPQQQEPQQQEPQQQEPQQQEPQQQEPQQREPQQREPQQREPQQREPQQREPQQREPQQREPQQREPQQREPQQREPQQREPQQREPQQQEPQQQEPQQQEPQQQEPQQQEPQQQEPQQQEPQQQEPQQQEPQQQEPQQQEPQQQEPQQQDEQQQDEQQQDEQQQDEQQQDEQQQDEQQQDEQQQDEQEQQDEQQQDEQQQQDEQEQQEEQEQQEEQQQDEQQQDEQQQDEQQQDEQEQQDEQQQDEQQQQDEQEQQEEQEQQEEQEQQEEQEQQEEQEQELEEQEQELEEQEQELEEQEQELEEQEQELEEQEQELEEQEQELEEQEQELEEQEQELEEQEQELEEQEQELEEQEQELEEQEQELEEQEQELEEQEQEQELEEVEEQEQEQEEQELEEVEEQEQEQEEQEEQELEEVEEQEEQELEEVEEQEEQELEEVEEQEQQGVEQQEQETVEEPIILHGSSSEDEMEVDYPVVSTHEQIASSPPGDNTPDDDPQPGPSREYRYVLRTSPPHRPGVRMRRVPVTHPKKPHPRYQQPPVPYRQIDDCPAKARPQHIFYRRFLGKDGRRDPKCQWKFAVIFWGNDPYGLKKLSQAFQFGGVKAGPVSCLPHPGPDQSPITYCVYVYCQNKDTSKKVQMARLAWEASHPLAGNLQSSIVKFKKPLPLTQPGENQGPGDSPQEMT
Beta apoptosis = beta cell apoptosis inhibition; INS-1E cytokine-induced death, ATP luminescence, 48 h; percent of positive-control rescue, neutral wells zero; protection from apoptosis, % (test concentration not listed); hit rate 0.8% among 300,000;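 active = all replicates at 75% or more, or half of them and the mean; inconclusive = half reach 75% but not the mean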;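 note: 0% = cytokine-treated negative control wells and 100% = positive control rescue; higher means more ATP so stronger rescue from cytokine killing; wells of about 40 µL received 100 nL stock; the first replicate is given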
B2AR ag = agonists of human beta-2 adrenergic receptor inducing internalization; Am2.2-beta2AR cells, FAP receptor internalization, flow cytometry; reference of the scale not given here; response, % (no concentration beside the values); hit rate 0.43% among 340,000; AID 504454;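 active = response above a set limit, near 3 SD of response in nonfluorescent compounds, cut at about 42% in these data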;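 note: stock transfer was 100 nL into about 11 µL; a reference agonist was the positive control; negative values mostly stem from fluorescent compounds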
Bfl-1 A1 inh = inhibitors of the anti-apoptotic protein A1, read as caspase activation; hit rate 0.066% among 330,000; caspase activation, % (test concentration not listed); MEF A1-2A-BIM cells, Caspase-Glo 3/7 luminescence, 3 h; percent of clofoctol response, vehicle zero; AID 2462;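 active = over half of replicate activation scores above 10%, or exactly half above 10 with the replicate mean above 10; inconclusive = replicate mean below 10 yet half the replicates above 10; inactive = over half of replicates below 10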;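 note: wells of about 30 µL received 50 nL stock; many hits fall short of the cut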
RanGTP-Impb inh = disruptors of Ran-importin-beta complex formation – biochemical, FRET, CFP-Ran, YFP-importin-beta, homogeneous, primary screen; cell-free CFP-Ran/YFP-importin-beta FRET ratio; inhibition, % (concentration not given with the values); hit rate 1.1% among 300,000; AID 2216;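 active = most replicates above 15%; inconclusive = exactly half above 15%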;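 note: 0% = DMSO wells and 100% = Ran loaded with GDP instead of GTP; wells of about 40 µL received 100 nL stock; the first replicate is given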
T cruzi inh = blocks replication of Trypanosoma cruzi | T. cruzi beta-gal in NIH3T3, luminescence, 90 h | inhibition, % (concentration not given with the values) | hit rate 1.4% among 300,000 | AID 1885;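 active = mean inhibition across valid replicates above about 55%, limit read from the data; inconclusive = mean below that limit but half or more replicates reach it; inactive = mean below it, under half of replicates reach it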;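 note: signal also drops with host cell toxicity which is not excluded here; 0% = plate median of DMSO wells and 100% = zero luminescence signal; higher percent means less beta-gal luminescence so fewer parasites; stock transfer was 50 nL into about 50 µL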
Active calls of the source: *; u = inconclusive; x = no result given; & = joins results of further samples. No enrichment for hits. Share with any hit: about 4.3%.

SMILES	Calb FLC	UCH37 inh	LANA-H2B inh	Beta apoptosis	B2AR ag	Bfl-1 A1 inh	RanGTP-Impb inh	T cruzi inh
O=c1ccn(Cc2ccccc2)cc1	13	3.7	-1.0	-5	2	0.3	-0.6	-24
O=C(Nc1ccc(S(=O)(=O)NC2=NCCCCC2)cc1)c1cccs1	x	0.2	-2.3	-4	-2	-0.1	x	x
CC1(C)CC(=O)C2=C(C1)N(Cc1ccco1)C(=O)C2(O)C(F)(F)F (configuration not stated)	-7	2.6	2.0	2	11	-0.5	5.0	37
COC(=O)CC/C(C)=N\Nc1ccc([N+](=O)[O-])cc1[N+](=O)[O-]	26	x	2.6	-4	1	-0.1	2.5	3
COC(CNC(=O)c1ccc2c(=O)n(Cc3ccc4c(c3)OCO4)c(=S)[nH]c2c1)OC	1	1.7	2.8	6	2	0.6	1.3	-13
O=S1(=O)CCO[C@H]2Cc3ccccc3[C@H]2N1Cc1ccc(Cl)cc1	7	x	-0.7	-1	-4	0.0	1.1	27
CC(NCc1ccncc1)C12CC3CC(CC(C3)C1)C2 (configuration not stated)	14	2.6	-0.6	-3	0	-0.5	-2.5	63*
CCCn1c(SCC(=O)NCc2ccco2)nnc1-c1ccncc1	8	2.5	-0.3	-9	7	-0.6	0.7	-3
Cc1ccc(C(=O)NNc2cc(=O)n(C)c(=O)n2C)cc1C	-13	5.2	0.9	-3	-5	-1.0	28*	-9
C=Cc1ccc(C2=CC(=O)C[C@H](c3ccc(OC)cc3)C2)cc1	x	2.6	-1.0	-7	-3	1.0	x	x
COc1ccc(CCNC(=O)CSc2nnnn2Cc2ccc3c(c2)OCO3)cc1OC	-3	1.1	-5.8	1	24	-0.8	4.2	7
O=C(COC(=O)c1cccnc1Cl)c1ccc(F)cc1	3	-0.5	2.2	-1	0	0.1	-0.3	-7
Cc1ccccc1C(O)c1ccccn1 (configuration not stated)	2	2.4	-3.7	5	-8	0.7	9.2	-12
CSc1ccccc1OCc1cc(C(=O)NCc2csc(C(C)C)n2)no1	-22	1.1	-2.1	2	12	-1.0	-0.3	14
CC1(C)CC2CC(C)(CN2c2ncnc3ccc(Br)cc23)C1 (configuration not stated)	4	3.8	1.7	53	-9	-0.2	-0.4	15
O=C(c1cccc(S(=O)(=O)Nc2ccc(Br)cc2)c1)N1CCCC1	12	5.4	5.3	-1	4	-0.3	1.9	11
Cc1onc(-c2ccccc2)c1C(=O)Nc1cccc(S(=O)(=O)NC2=NCCC2)c1	x	0.6	-281	-11	0	1.3	x	x
CCOc1cc(NC(=O)c2ccccn2)c(OCC)cc1NC(=O)CC(C)C	6	-14	x	x	-8	x	-2.7	10
C[C@@H](NC(=O)c1nc[nH]c1C(=O)NCC(=O)OCc1ccccc1)c1ccccc1	-2	0.4	3.3	-3	11	-0.2	-2.9	-3
CCOc1ccc(C(=O)/C=C/c2cn(CN3CCN(C)CC3)c3ccccc23)cc1	x	-14	-1.3	-1	1	-0.3	x	x
O=C1CCC/C(=N/NC(=O)c2ccc(NS(=O)(=O)c3cccs3)cc2)C1	-3	x	1.0	5	7	0.3	1.6	-11
Cc1ccc(S(=O)(=O)CC(=O)Nc2ccc(Cl)cn2)cc1	37	2.9	-3.4	-7	0	0.9	1.3	-5
CC(C)(C)NC(=O)NC(=O)CN1CCN(S(=O)(=O)c2ccccc2)CC1	-4	2.6	5.5	4	0	0.6	-6.8	-1
O=C(Nc1ccc(N2CCN(C(=O)c3cccs3)CC2)cc1)c1ccc(Br)o1	x	2.5	-0.8	62	6	-0.3	x	x
CCOC(=O)c1[nH]c(C(=O)O)c(OC(=O)CC)c1C	3	0.3	5.2	2	-2	0.5	1.8	-6
O=C(CCNC(=O)c1ccccc1)Nc1nc2ccccc2s1	x	-0.9	8.5	-26	-3	0.0	x	x
C[C@H]1O[C@@H](n2cc(F)c(=O)[nH]c2=O)[C@H](O)[C@@H]1O	-4	-1.7	-0.7	-2	-7	-0.4	1.6	-5
CCOC(=O)CSc1nc(N)cc(=O)[nH]1	-13	-0.4	-0.6	-8	0	0.4	6.3	-8
Cc1ccc(NC(=O)CN(C)C(=O)COC(=O)C2=COCCO2)cc1	4	-2.0	3.5	x	-2	0.1	2.0	-9
COC(=O)c1ccc(NC(=O)CSC2=Nc3ccccc3C3CC=NN23)cc1 (configuration not stated)	-1	5.7	2.2	0	12	0.2	0.2	3
Cc1ccc(CCNc2ccccc2C)cn1	-5	3.1	-2.1	-3	-5	-0.2	-0.6	-2
O=C(COC(=O)CC1CCCC1)Nc1ccc(Cl)cn1	x	3.5	1.1	-6	-2	0.8	x	x
O=C(O)CCC(=O)Nc1sc2c(c1C(=O)Nc1ccccc1)CCCCC2	-1	1.9	-2.8	6	10	0.5	3.6	-9
C=CCNC(=S)N1CCC(C(=O)c2ccc3c(c2)OCCO3)CC1	7	-0.8	2.5	4	-1	0.0	-3.7	-5
O=C(N/N=C/c1ccc(Cl)cc1Cl)c1cccc(N2CCCC2=O)c1	27	x	6.1	6	1	2.8	1.4	-2
COc1ccc([N+](=O)[O-])cc1N(CC(=O)NCc1ccco1)S(C)(=O)=O	-11	5.6	10	-13	-2	-0.8	6.7	0
O=C(CCC(=O)NNc1nc2ccccc2c2nc(-c3ccccc3)nn12)NCCCN1CCOCC1	9	2.9	1.1	-4	-1	-0.5	3.4	15
O=C(Nc1ccc(Cl)cc1)N1CCN(C(=O)C2CCCO2)CC1 (configuration not stated)	6	1.7	-2.4	-3	1	-0.2	-0.3	-1
CCOc1ccc(-c2nc(C)c(C(C)=O)n2O)cc1	39	2.8	-3.0	5	4	-4.8	2.5	-9
CNCCCC1Sc2ccccc2Oc2ccccc21 (configuration not stated)	4	6.2	-2.5	-7	25	0.4	-0.7	17
O=C(CN1CCN(S(=O)(=O)c2ccccc2F)CC1)Nc1ccnn1C1CCCC1	x	1.5	-9.5	4	-1	-0.6	x	x
CCc1nnc(NC(=O)CSc2nnc(-c3ccccc3NC(=O)c3ccccc3)o2)s1	-4	-20	0.3	4	5	0.0	0.5	-6
CCCCCCN=CC1=C(O)CC(C)(C)CC1=O	-4	0.2	-0.3	0	-6	0.1	-0.5	-4
O=C(CCc1ccccc1)OCCN1CCOCC1	-22	4.8	2.7	-1	-4	-0.2	2.7	-17
C[C@H]1CCC[C@@]2(O[C@@H](CCO)C[C@H](O)[C@H]2O)O1	-4	-1.3	3.5	3	-6	-0.4	11	12
O=C(CNC(=O)c1ccccc1)OCc1cccc([N+](=O)[O-])c1	-5	5.2	-4.7	2	-3	1.3	-1.1	-14
COc1ccc(CN(C)Cc2c(O)ccc3ccccc23)cc1	-4	x	2.9	5	0	0.3	-0.7	36
Cc1cccc(C)c1NC(=O)CNC(=O)c1ccc2c(c1)OCCO2	x	-0.1	-4.0	3	-1	-1.2	x	x
COc1ccc(C2=NN(CN3C(=O)C(=O)c4ccccc43)C(c3ccc(C)cc3)C2)cc1 (configuration not stated)	-7	2.7	-0.5	-7	27	x	-13	-14
Nc1nc(Nc2ccccc2)nc(C(F)(F)F)n1	5	0.2	-1.8	6	2	0.1	7.9	-10
CC(C)(C)c1ccc(C(=O)OCC(=O)NCc2ccco2)cc1	x	2.9	-7.7	-5	-10	1.0	x	x
O=C(OCc1ccc(Cl)c(Cl)c1)c1cccnc1Cl	1	3.7	-2.1	-7	5	-2.7	-0.6	6
CCOC(=O)c1ccccc1NC(=O)CN(c1ccc(OCC)cc1)S(C)(=O)=O	-5	x	x	x	-4	x	u	-12
CC1(c2ccc([N+](=O)[O-])cc2)Nc2ccccc2S1 (configuration not stated)	-2	3.6	-1.0	-7	-2	-1.5	5.0	2
COC(=O)C1=NNC2(c3ccc(Cl)cc3)C(=O)N(c3ccc(Cl)cc3)C(=O)C12 (configuration not stated)	-19	3.5	-5.5	-3	8	0.5	-2.0	3
Cc1nc2cc(NC(=O)N3CCCC3)ccc2n1C	u	5.6	-0.3	1	-10	-0.7	-1.0	-1
COc1ccccc1C(=O)Nc1nnc(CCc2ccccc2)s1	1	1.9	-3.7	32	-11	1.2	3.0	12
CC(C)NC(C(=O)Nc1cc(Cl)cc(Cl)c1)c1ccccc1 (configuration not stated)	-12	-1.7	-0.2	-2	5	-2.2	-1.4	28
COc1ccc(C(=O)CN2C(=O)NC3(CCCc4ccccc43)C2=O)cc1 (configuration not stated)	3	5.3	-1.8	-1	-10	0.8	x	4
O=C(CSc1nnc(-c2ccccc2F)o1)NC1CC1	x	-3.2	2.5	1	-8	-0.9	x	x
Next entries.
SMILES	Calb FLC	UCH37 inh	LANA-H2B inh	Beta apoptosis	B2AR ag	Bfl-1 A1 inh	RanGTP-Impb inh	T cruzi inh
CCOC(=O)c1ccc(COC(=O)c2nonc2N)cc1	1	0.4	-1.9	3	-4	0.1	2.0	-17
N#Cc1nc(Cc2ccccc2)oc1N1CCN(c2ccccc2)CC1	2	2.9	-2.4	x	-3	0.1	0.6	28
Cc1occc1-c1nc(-c2ccccn2)no1	4	0.8	0.6	22	3	-17	4.8	-9
NC(=O)NC(=O)C[n+]1cccc(/C=N/O)c1	3	x	-2.9	5	-5	0.4	-2.3	-3
COc1ccc(CN2C(=O)c3ccccc3C2C(=O)NCc2cccnc2)c(OC)c1 (configuration not stated)	-11	0.0	-0.3	7	-4	0.1	-4.0	0
O=S(=O)(NCc1nc(-c2ccccc2)no1)c1ccc(F)cc1	-4	0.0	3.4	-2	6	0.3	-0.9	-5
CCOC(=O)C1CCN(C(=O)C2CCCN(S(=O)(=O)c3ccc(OCC)c(Cl)c3)C2)CC1 (configuration not stated)	1	1.1	-2.4	x	3	-0.9	-1.3	4
S=C1NCN(Cc2ccco2)CN1CCc1ccccc1	-12	4.4	-0.4	7	-4	0.6	7.9	x
Cc1ccccc1C(=O)NC(=S)NC1CCSC1=O (configuration not stated)	2	1.9	-6.8	3	2	0.3	-2.9	-2
Cc1ccc2nc3c(nc2c1C)C(O)=C3O	18	-0.6	7.5	-9	5	-0.8	0.1	-16
CCCC1O[C@@H]2C[C@H]3[C@@H]4CCC5=CC(=O)C=C[C@]5(C)[C@H]4[C@@H](O)C[C@]3(C)[C@]2(C(=O)CO)O1 (some centres not stated)	x	1.5	3.4&-6.6	-7	-6	0.0	1.3	27
Cc1cc(O)c2c(c1)C(O)(C1OC(CO)C(O)C(O)C1O)c1cccc(O)c1C2=O (configuration not stated)	-5	1.5	1.4	2	-1	-0.3	-1.7	-18
Cc1ccccc1C(=O)NNC(=S)NC(=O)c1cccs1	13	0.6	-0.3	11	-8	-0.9	1.9	-12
COc1ccc(CCNC(=O)C2CCN(S(=O)(=O)N3CCC4(CC3)OCCO4)CC2)cc1OC	-8	2.1	-5.0	-9	-1	0.4	-0.2	-23
Cc1nc2ccccc2c(N)c1C(=O)/C=C/c1ccccc1	31	9.0	-2.0	8	6	-0.9	0.8	52
N#Cc1cnc(NN)nc1	36	0.9	165*	6	1	0.2	-2.7	-19

Screening results: PubChem BioAssay, several laboratories
